# CBX7 AlphaScr: CBX7 inhibition, primary AlphaScreen | hit rate 1.1% among 66,000 | AlphaScreen His6-CBX7 / biotin-H3K27me3 peptide binding; stronger effect = lower value | O95931 | normalised signal (fraction of DMSO) (test concentration not listed); in the data active = normalised signal below about 0.5;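 note: 100 nL library stock added to about 20 µL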
# Target sequence (O95931 whole entry, looked up): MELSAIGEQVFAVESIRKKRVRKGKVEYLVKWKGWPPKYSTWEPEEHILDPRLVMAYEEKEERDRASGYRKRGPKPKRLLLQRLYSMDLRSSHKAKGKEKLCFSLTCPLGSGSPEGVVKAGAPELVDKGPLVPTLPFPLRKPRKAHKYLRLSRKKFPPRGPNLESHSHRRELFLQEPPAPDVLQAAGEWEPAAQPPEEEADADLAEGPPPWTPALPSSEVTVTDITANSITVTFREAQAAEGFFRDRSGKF
# CBX7 AlphaScr z-score: second read-out of CBX7 AlphaScr, no call of its own (marks repeat the call); z-score; measured here: z-score of CBX7 signal; some inactives read as strong as hits; reference of the scale not given here;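 same signal on another scale; lower means less binding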
# Starred values were filed as active, the others as inactive. Some of the compounds tested; rates above refer to the full screens.
# Each structure is followed by: CBX7 AlphaScr, CBX7 AlphaScr z-score
- Cc1cc(C)nc(NC(=O)c2c(-c3ccccc3Cl)noc2C)c1
 : 1.4, 1.5
- CCOc1ccccc1NC(=O)c1ccc2c(=O)n3c(nc2c1)CCCCC3
 : 0.96, -0.081
- COc1cc2c(cc1OC)C(c1c(Cl)cccc1Cl)CC(=O)N2 (stereo not drawn)
 : 0.91, -1.2
- CCCCOc1ccccc1C1CC(=O)Nc2cc(C)c(C)cc21 (stereo not drawn)
 : 0.96, -1
- COc1ccc(C(=O)NC(C)C(c2cccs2)N2CCN(c3ccccc3OC)CC2)cc1 (stereo not drawn)
 : 0.98, -0.39
- Cc1onc(-c2ccccc2Cl)c1C(=O)Nc1ccc(F)c(Cl)c1
 : 1, 0.34
- CCC(Sc1nncn1C)C(=O)Nc1cc(C)on1 (stereo not drawn)
 : 1.1, 0.11
- Cc1ccc(C(CC(=O)NCC2(c3ccccc3)CCCC2)c2ccccc2)c(O)c1C (stereo not drawn)
 : 0.96, -0.42
- COc1ccc(C(=O)NCCc2cc3c(C)ccc(C)c3[nH]c2=O)c(OC)c1
 : 1, 0.025
- CCOc1ccc(-n2c(Cc3cc(=O)[nH]c(=O)[nH]3)nnc2SCC(=O)Nc2ccccc2C)cc1
 : 1, -0.066
- Cc1ccccc1Cn1c(C(C)O)nc2ccccc21 (stereo not drawn)
 : 0.9, -0.38
- COc1cc2c(C(=O)N3CCN(c4ccccc4)CC3)cn(CC(C)C)c(=O)c2cc1OC
 : 0.89, -2.9
- CCCCN(C)S(=O)(=O)c1ccc(C(=O)Nc2nnc(-c3cccs3)o2)cc1
 : 0.68, -3.1
- CCC(C)NC(=O)c1ccc2c(c1)nc(C)n2-c1ccc(Br)cc1 (stereo not drawn)
 : 1.1, 1.4
- Cc1ccc(C2=NN(CCC(=O)NCCc3ccccc3)C(=O)CC2)cc1
 : 1, 0.21
- CCCCNC(=O)CSCc1nc(-c2ccc(OC)c(OC)c2)oc1C
 : 1, 1.1
- CCOc1ccc(NC(=O)CSc2nccn2-c2cccc(C)c2C)cc1
 : 0.9, -0.1
- Cc1ccc(OCC(=O)Nc2ccc(Cl)c(-c3nc4cc(C)ccc4o3)c2)cc1
 : 0.98, -0.026
- O=C(NCc1cccc(Cl)c1)Nc1ccc2snnc2c1
 : 1, 0.34
- CC(NC(=O)c1ccccc1NC(=O)c1ccccc1F)c1ccccc1 (stereo not drawn)
 : 1, 2
- COc1cccc(NC(=O)CN2C(=O)CC(c3ccccc3)Sc3ccccc32)c1 (stereo not drawn)
 : 0.78, -3.7
- Cc1cc(NC(=O)c2cc(-c3ccco3)on2)no1
 : 0.98, -0.53
- CC(C)C(=O)Nc1cccc(-c2nc3ncccc3o2)c1
 : 0.99, -0.013
- Cc1ccc(-c2nc(S(=O)(=O)c3ccc(Cl)cc3)c(NCc3ccccc3)o2)cc1
 : 0.81, -1.2
- COCCNC(=O)c1c[nH]n2c(=O)cc(C3CCNCC3)nc12
 : 0.96, -0.89
- COc1cc2c(cc1OC)C(C(=O)N1CCCC(C)C1)C1c3ccccc3CCN1C2=O (stereo not drawn)
 : 1.1, 1.6
- CC(C)CCN1C(=O)Cn2cccc2C1C(=O)NC1CCC(C)CC1 (stereo not drawn)
 : 0.93, -1.4
- CCC1Sc2ccccc2N(CC(=O)NCCc2ccc(OC)c(OC)c2)C1=O (stereo not drawn)
 : 1, 1.1
- Cc1cccc(C)c1NC(=O)C(c1ccccc1)N(C)C(=O)c1cnccn1 (stereo not drawn)
 : 0.98, -0.56
- CC1(C)CC(=O)C2=C(C1)N(c1ccc(C(F)(F)F)cc1)C(=O)CC2c1cccs1 (stereo not drawn)
 : 1.1, 1.3
- O=C(Nc1ccc2ccccc2n1)c1ccccc1O
 : 1, 0.58
- COc1cccc(OCC(=O)N(Cc2nc(-c3ccc(Cl)cc3)no2)C(C)C)c1
 : 0.74, -2.6
- COc1cc(NS(=O)(=O)c2ccc(NC(=O)c3cccc4ccccc34)cc2)nc(OC)n1
 : 1, 1
- O=C(Nc1ccccc1-c1nc2ccccc2s1)c1cccc(Oc2ccccc2)c1
 : 1, 0.31
- Cc1ccc(NC(=O)CCN2C(=O)c3ccncc3C2=O)cc1
 : 1.2, 1.8
- COc1ccc(-c2noc(-c3ccc(Br)cc3)n2)cc1OC
 : 1.3, 2.6
- COCCNC(=O)CCc1c(C)nc2c(-c3ccccc3)c(C)nn2c1C
 : 1.1, 1.6
- CCCCNC(=O)c1cc(-c2ccncc2)nc2ccc(S(=O)(=O)N3CCOCC3)cc12
 : 1.1, 0.99
- Cc1oc(-c2cccc(Cl)c2)nc1CN1CCCC(C(=O)NCCN2CCCC2)C1 (stereo not drawn)
 : 1.1, 0.47
- CCOC(=O)c1ccc(NC(=O)CC2C(=O)N(c3ccc(F)cc3)C(=O)N2Cc2ccccn2)cc1 (stereo not drawn)
 : 1, 0.12

# 5 structures out of the list, ordered by SMILES length, falling:
# Each structure is followed by: CBX7 AlphaScr, CBX7 AlphaScr z-score
- COc1cc(NS(=O)(=O)c2ccc(NC(=O)c3cccc4ccccc34)cc2)nc(OC)n1
 : 1, 1
- CCCCNC(=O)c1cc(-c2ccncc2)nc2ccc(S(=O)(=O)N3CCOCC3)cc12
 : 1.1, 0.99
- O=C(Nc1ccccc1-c1nc2ccccc2s1)c1cccc(Oc2ccccc2)c1
 : 1, 0.31
- Cc1ccc(NC(=O)CCN2C(=O)c3ccncc3C2=O)cc1
 : 1.2, 1.8
- O=C(Nc1ccc2ccccc2n1)c1ccccc1O
 : 1, 0.58

# (listing goes on)
# Each structure is followed by: CBX7 AlphaScr, CBX7 AlphaScr z-score
- CCCCN(CCCC)CCNC(=O)c1ccc2nc(-c3ccccc3NC(C)=O)c(=O)[nH]c2c1
 : 0.99, -0.18
- Cc1ccc(NC(=O)Cn2cnc3c(nnn3Cc3ccc(F)cc3)c2=O)cc1
 : 0.89, -1.8
- CCCSCCCNC(=O)CN1C(=O)CSc2ncccc21
 : 0.98, -0.26
- CCOCCCNC(=O)C1c2cc(OC)c(OC)cc2C(=O)N2CCc3ccccc3C12 (stereo not drawn)
 : 1, 1.4
- Cc1ccc(C(=O)Nc2ccc(-c3nc4ccc(C)cc4s3)cc2)cc1
 : 1.2, 2.1
- CCCCNC(=O)CC1Oc2ccccc2NC1=O (stereo not drawn)
 : 1, 0.94
- Cc1ccc2c(c1)C(c1ccc(F)cc1)N(C(=O)c1ccc(OC(C)C)cc1)CC(=O)N2 (stereo not drawn)
 : 0.64, -6.6
- Cc1cc(=O)n2nc(N3CCC(C(=O)NCCc4ccc(Cl)cc4)CC3)sc2n1
 : 0.97, -1.6
- Cc1ccc(Nc2cc(C)nc3ncnn23)c(Cl)c1
 : 1.1, 1.3
- CCCN(CCC)CC(=O)C12CC3CC(C1)CC(c1ccc(C)cc1)(C3)C2
 : 0.82, -2.1
- O=C(Nc1cccc(F)c1)c1ccc(Br)c(S(=O)(=O)N2CCCCC2)c1
 : 1.1, 1.8
- O=C(Cn1c(-c2cncs2)nc2ccccc21)Nc1ccccc1
 : 0.94, -1.1
- Cc1nnc(Sc2cc(C(=O)N3CCOCC3)c3ccccc3n2)s1
 : 1, 0.71
- O=S(=O)(c1ccc(-c2csc(Nc3ccc(F)cc3)n2)cc1)N1CCOCC1
 : 0.96, -0.27
- O=C(CCN1C(=O)COc2ccccc21)NC1CC1
 : 1, -0.12
- CCOC(=O)C1CCCN(c2c(N3CCC(N4CCCCC4)CC3)c(=O)c2=O)C1 (stereo not drawn)
 : 0.98, -0.51
- Cc1cccc(C(=O)Nc2ccc3nc(SCC(=O)N4CCOCC4)sc3c2)c1
 : 0.91, -0.99
- c1ccc(-c2cnc(-c3ccncc3)o2)cc1
 : 1.1, 1.5
- Cc1[nH]c2ccc(OC(F)(F)F)cc2c1CCNC(=O)c1cccc(F)c1F
 : 0.96, -0.67
- COc1cc(OC)cc(-n2nc(C(=O)Nc3cc(C)ccc3OC)c3ccccc3c2=O)c1
 : 0.89, -2.9
- CCOc1ccccc1Nc1ncc(C(=O)OC)c2ccccc12
 : 2.5, 37
- O=c1[nH]c2ccc(S(=O)(=O)Nc3ccc4c(c3)OCCO4)cc2[nH]c1=O
 : 1, 0.049
- Cc1ccc(CN2C(=O)c3ccccc3C2C(=O)NC2CCC(C)CC2)cc1 (stereo not drawn)
 : 0.93, -1.9
- CCC(C(=O)NCCc1cc2c(OC)ccc(OC)c2[nH]c1=O)c1ccccc1 (stereo not drawn)
 : 1.1, 0.94
- CC1(C)CC(=O)C2=C(C1)N(c1cccc(Cl)c1)C(=O)CC2c1ccsc1 (stereo not drawn)
 : 1, 0.73
- COc1ccccc1NC(=O)Cn1cnc2sc(C(=O)Nc3cccc(Cl)c3)c(C)c2c1=O
 : 0.97, -0.27
- CCCCN(C)CCNC(=O)c1ccc2c(c1)N(Cc1c(F)cccc1Cl)C(=O)CS2
 : 1, -0.2
- O=C(Nc1c(-c2ccc(F)cc2)nc2ccccn12)c1cccc(Cl)c1
 : 0.95, -1.2
- COc1ccc(-c2cc(C(=O)Nc3cc(OC)c(Cl)cc3OC)no2)cc1
 : 1.3, 1.6
- CC1CCN(C(=O)CSc2nnc(-c3c[nH]c4ccccc34)n2C)CC1
 : 1.1, 0.67
- C#CCN1C(=O)C(O)(CC(=O)c2ccncc2)c2cc(Br)ccc21 (stereo not drawn)
 : 0.94, -0.075
- CCn1c(SCC(=O)Nc2ccc(Cl)cc2)nnc1-c1c[nH]c2ccccc12
 : 1.1, 0.86
- CC(=O)n1cc(Nc2ccccc2C(=O)O)c2ccccc21
 : 0.74, -1
- Cc1cccc(C)c1Nc1c(-c2ccc(N(C)C)cc2)nc2ncccn12
 : 1, 0.54
- COc1ccc(NC(=O)c2sc3ncn(CC(=O)N4CC(C)CC(C)C4)c(=O)c3c2C)c(OC)c1 (stereo not drawn)
 : 0.99, -0.2
- Cc1cccc2c1-c1sc(C(=O)N3CCN(c4ccccc4F)CC3)cc1CO2
 : 1, 1.2
- COCCNC(=O)CSc1nc(-c2ccccc2)[nH]c1-c1ccccc1
 : 0.93, -1.1
- CCCCCOc1ccc(C(=O)Nc2c(C(=O)c3ccc(Cl)cc3)oc3ccccc23)cc1
 : 1, 0.2
- COc1ccc(CC(=O)N2CC(=O)Nc3ccc(C)cc3C2c2ccc(F)cc2)cc1 (stereo not drawn)
 : 1.3, 3.2
- Clc1ccc(Nc2ncc(Cc3cccc4ccccc34)s2)cc1
 : 0.73, -0.48
- O=C(Nc1ccc(-c2noc(COc3ccc(Br)cc3)n2)cc1)c1ccncc1
 : 1, -0.047
- CCCCNC(=O)c1cc2c(n(-c3ccc(Cl)cc3)c1=O)CC(C)(C)CC2=O
 : 1, 0.56
- COc1ccc(-n2cc(C(=O)Nc3cc(C)ccc3OC)c3ccccc3c2=O)cc1
 : 0.9, -3.3
- Cc1cc(C)cc(-n2ccnc2SCC(=O)Nc2ccc3c(c2)OCO3)c1
 : 0.67, -12
- CCCCCCOc1ccc(C2C(=O)N(C3CCCCC3)CC(=O)N2CCC)cc1 (stereo not drawn)
 : 0.9, -0.41
- Cc1cccc(-c2nnc(SCC(=O)N3CCCC3)o2)c1
 : 0.95, -0.11
- Cc1ccccc1-n1c(=O)cc(N2CCOCC2)[nH]c1=O
 : 1.1, 0.94
- O=C(NCCCN1CCCCC1)c1cc(=O)[nH]c2ccc(S(=O)(=O)N3CCCCC3)cc12
 : 1.1, 0.63
- CCn1cc(CNC(=O)c2cc(-c3ccccc3)nc3ccc(Br)cc23)cn1
 : 1, 0.79
- CCCCNC(=O)C1CCN(Cc2nc(-c3ccccc3F)oc2C)CC1
 : 1.1, 1.6
- O=C(NCc1ccccc1)c1ccc2c(c1)N(Cc1c(F)cccc1Cl)C(=O)CS2
 : 1, 0.65
- COCCCNC(=O)c1ccc2c(c1)ncn2-c1cc(Cl)ccc1OC
 : 0.87, -1.6
- Cc1cc(C)c2nc(N3CCC(C(=O)NC4CCCCC4)CC3)sc2c1
 : 1.1, 1.9
- Cc1cc2nc(-c3ccc(NC(=O)c4cccc(F)c4)cc3)oc2cc1C
 : 0.88, -0.49
- COC(=O)CNC(=O)c1cc(-c2ccccc2)nc2ccccc12
 : 0.99, -0.36
- CCN(CC)CCCNC(=O)c1cc(Nc2ccc(C)c(C)c2)nc2ccccc12
 : 1.2, 3.1
- Cc1nc2cc(S(=O)(=O)N(C)C)ccc2n1-c1ccccc1
 : 0.95, -1.3
- CCOc1ccccc1-n1cnc2cc(C(=O)NCCOC)ccc21
 : 0.98, -0.019
- CCc1ccc(OC(C)C(=O)Nc2c(C(=O)c3ccc(Cl)cc3)oc3ccccc23)cc1 (stereo not drawn)
 : 2, 3.6
- COc1nc(-c2ccncc2)nc2ccccc12
 : 1, -0.0081

# More compounds follow:
# Each structure is followed by: CBX7 AlphaScr, CBX7 AlphaScr z-score
- Cc1ccc(NC(=O)C2CC2(c2ccccc2C)c2ccccc2C)cc1 (stereo not drawn)
 : 1, 0.35
- O=C(NC1CCCC1)c1cc(-c2ccccc2O)on1
 : 0.99, -0.4
- O=C(CN1C(=O)CSc2ncccc21)Nc1ccccn1
 : 1.1, 0.19
- O=C(CSc1nnc(-c2cccnc2)o1)Nc1ccc(Br)cc1
 : 1, 0.73
- O=C(NCc1ccccc1)C1CCN(S(=O)(=O)c2cccnc2)CC1
 : 0.99, -0.29
- Cc1ccccc1OCC(=O)Nc1ccc2oc(-c3ccccc3Br)nc2c1
 : 1.1, 0.13
- Cc1ccc(NC(=O)c2ccc3c(c2)NC(=O)c2ccccc2S3)c(Cl)c1
 : 0.98, -0.45
- COc1ccc(-n2nc(C(=O)NCc3ccc(F)cc3)c3ccccc3c2=O)c(OC)c1
 : 0.99, -0.15
- O=C(CSc1nnc(Cc2cc(=O)[nH]c(=O)[nH]2)n1-c1ccccc1)Nc1ccccc1
 : 1.1, 1.8
- CN1C(=O)CC2(CC(=O)N(Cc3ccccc3)C2)C1=O (stereo not drawn)
 : 0.92, -1.1
- O=C(Nc1ccc(F)cc1)c1ccc2c(c1)NC(=O)c1ccccc1S2
 : 0.96, -1.1
- CCOc1ccc2c(c1)c(=O)c(S(=O)(=O)c1ccc(Cl)cc1)cn2CC(=O)Nc1ccccc1
 : 1, 1.6

# Screens deposited in PubChem by several laboratories.
